AID504770 – growth inhibition of E. coli YBA685, primary screen, V. cholerae RctB inhibitors; E. coli YBA685 rctB-dependent plasmid, OD600 growth, 3 h; active compounds read low; AID 504770, 2011; 0.27% of 130,000 active; z-score (no concentration beside the values);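 active = z-score under -2 on both plates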;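 note: wells of about 30 µL received 100 nL stock; score is relative to mean and SD of the test wells; the first replicate is given; strong numbers were not always called active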
Ba CapD inh – Bacillus anthracis CapD inhibitors, primary screen, biochemical, fluorescence intensity; CapD gamma-glutamyltranspeptidase (Bacillus anthracis Ames Ancestor); purified CapD enzyme, fluorescence intensity read-out; active compounds read low; some hits fall short of the stated cut; z-score (no concentration beside the values); 0.23% of 140,000 active;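 active = z-score under -4 in either of two replicates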;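 note: stock transfer was 100 nL into about 40 µL; score is relative to mean and spread of the plate; one replicate is shown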
An asterisk follows results filed as active; . = not tested or not shown.

SMILES	AID504770	Ba CapD inh
CCOc1ccc2nc(N3CCCC(C(=O)NC)C3)sc2c1 (stereo unspecified)	-0.15	-0.23
O=C1CC(Nc2ccc(N3CCOCC3)cc2)C(=O)N1c1ccccc1C(F)(F)F (stereo unspecified)	0.2	0.61
CC(OC(=O)c1ccc2c(=O)n3c(nc2c1)CCCCC3)C(=O)N1CCCc2ccccc21 (stereo unspecified)	-0.6	.
Cc1ccccc1OCc1nnc2c3cnn(C)c3ncn12	-0.5	-0.42
COc1ccccc1N1CCN(C(=S)Nc2ccc(S(=O)(=O)N3CCOCC3)cc2)CC1	0.2	-0.74
Cc1ccc(CNS(=O)(=O)c2ccc3oc(C(=O)O)c(C)c3c2)cc1	-0.15	0.33
CS(=O)(=O)c1ccc(CN(C(=O)c2ccccc2C(F)(F)F)c2ccccn2)cc1	.	-0.45
O=C(Cn1ncc2ccccc21)N1CCN(c2ccccc2)CC1	-0.4	-0.03
O=C1CN(C(=O)c2ccco2)c2ccccc2N1	0.1	-0.17
COc1ccc(C2c3sc(=O)[nH]c3SC3C(=O)N(c4ccc(Br)cc4)C(=O)C32)cc1 (stereo unspecified)	-0.5	-0.75
Cc1ccc(C(=O)CC#N)cc1	.	0.065
CCCCC(=O)Nc1sc2c(c1C#N)CCCC2	-0.3	0.17
CCN(Cc1cccc(Cl)c1)C(=O)c1cnc(OC)cc1C(F)(F)F	-0.15	0.8
CCN(CC(=O)Nc1ccc2c(c1)OCCO2)C(=O)c1ccc(CS(C)(=O)=O)cc1	-0.05	.
COc1ccc(NC(=O)C2CC(=O)NC3=C2C(=O)CCC3)cc1 (stereo unspecified)	-0.9	0.1
CC(NC(=O)Nc1ccc(F)cc1F)C1CCCO1 (stereo unspecified)	-0.7	-0.04
CC(C)OCC(O)CN1CCN(Cc2ccccc2)CC1 (stereo unspecified)	-1.1	-0.075
CC(Sc1ccc(S(=O)(=O)N2CCOCC2)cn1)C(N)=O (stereo unspecified)	-0.2	.
CCOC(=O)C1=C(C)N(c2nonc2NC(C)=O)C(N)=C(C#N)C1c1ccc(Br)cc1 (stereo unspecified)	0.15	0.14
O=C(O)Cn1c(SCc2cccc3ccccc23)nc2ccccc21	.	0.4
COc1cc(C(=O)Nc2cc(C(=O)N3CCCC3)ccc2N2CC3CC(C2)c2cccc(=O)n2C3)cc(OC)c1OC (stereo unspecified)	.	0
Oc1ccccc1C=Nc1cccc(C(F)(F)F)c1	.	-0.58
Cc1ccc(-c2n[nH]c3c2C(c2ccc(C(C)C)cc2)NC3=O)cc1 (stereo unspecified)	0.3	0.015
O=S(=O)(NCc1ccc(Br)cc1)c1ccc(F)cc1	1.1	-0.23
Nc1ccccc1C(=O)N1CCC(c2nnc(-c3ccccc3)o2)CC1	.	2
COc1ccc(Nc2nc(NCCN3CCOCC3)nc3c2cnn3C)cc1Cl	0	-0.055
CC(NC(=O)C(Cc1ccccc1)n1cccc1)c1ccccc1 (stereo unspecified)	0.65	0.2
CCOC(=O)Nc1ccc2c(c1)N(C(=O)CCN(CC)CC)c1ccccc1S2=O (stereo unspecified)	0	0.68
Cc1nc(Cl)c2sc(=S)n(-c3ccccc3)c2n1	-0.4	-2
CCOC(=O)N1CCN(CC(O)COc2ccc3ccccc3c2)CC1 (stereo unspecified)	0.2	0.37
COc1cccc(-c2cc3nc(-c4ccccc4)cc(N4CCC(O)CC4)n3n2)c1	0.5	.
Cc1nnc2ccc(NCCc3ccc(S(N)(=O)=O)cc3)nn12	0.15	2.7
N#Cc1cccc(CSc2nc3ccc(C(F)(F)F)cc3[nH]2)c1	1.9	0.69
CC(C)CC(C(=O)N(C)Cc1ccccc1)N1Cc2ccccc2C1=O (stereo unspecified)	0.65	-0.4
COc1cc(OC)c(C2C=C(c3ccc(C)cc3)Nc3nc4ccccc4n32)cc1OC (stereo unspecified)	.	-0.73
CC(C)(C)c1ccc(O)c(NC(=O)OCCC2=CCC3CC2C3(C)C)c1 (stereo unspecified)	.	-0.18
COc1cccc(N/C(SCc2ccc(Cl)cc2)=C(/C#N)C(N)=O)c1	.	-0.09
c1ccc(C(c2ccccc2)N2CCN(CC3(c4ccccc4)OCCO3)CC2)cc1	0.15	0.57
O=C(Nc1ccccc1)Nc1ccccc1C(=O)NC1CCSC1 (stereo unspecified)	1	3.6
CCCN=Cc1c(CCC)[nH]n(-c2nc3ccccc3s2)c1=O	-0.8	0.13
COc1cc(C2C(C#N)=C(N)N(c3ccc([N+](=O)[O-])cc3)C3=C2C(=O)CCC3)cc(OC)c1OC (stereo unspecified)	.	-0.86
CSc1nnc(C)n1-c1ccc(OCc2ccccc2)cc1	-0.55	-0.36
O=C(OCC(=O)c1ccccc1)C1=NN(c2ccccc2)C(=O)CC1	0.7	.
N#Cc1sc2nc(N3CCCCC3)c3c(c2c1N)CCCC3	-0.25	53
COC(=O)c1ccc2c(c1)nc(SCc1ccccc1Cl)n1c3ccccc3nc21	-0.15	-0.095
Cc1ccc(-c2noc(CN3C(C)CCCC3C)n2)cc1 (stereo unspecified)	-0.55	.
CNc1nc(N)c(C(=O)C(C)(C)C)s1	-0.45	-3.3
O=C(NC1CC1)c1cc(-c2cccnc2)nc2ccccc12	2	-1.4
CCC(C)(C)C1CCC(=NNC(=O)Cc2cccn2C)CC1 (stereo unspecified)	0	.
CCCNS(=O)(=O)c1c(C(=O)OCC)c(C)n(C)c1C	0.1	-0.9

The results go on.
SMILES	AID504770	Ba CapD inh
COc1ccccc1N1CCN(S(=O)(=O)c2ccc(F)c(C(=O)Nc3ccc(Br)cc3)c2)CC1	.	0.4
COc1ccc(-c2nc(-c3cccc([N+](=O)[O-])c3)cs2)cc1	.	0.11
COc1ccccc1C(=O)Nc1sc2c(c1C(N)=O)CCC2	0.25	3.1
COc1ccc(OCC(O)CNC(=O)c2c(-c3ccccc3)noc2C)cc1 (stereo unspecified)	0.9	0.99
Cc1cccc(NC(=O)c2ccc(-n3nc(C)cc3C)cc2)c1	-0.5	-0.47
O=C1c2ccccc2C(=O)c2sccc21	-0.3	0.23
CCOC(=O)c1c(C)n(CC(COC(C)=O)OC(C)=O)c2ccc(OC(C)=O)cc12 (stereo unspecified)	.	-0.66
Cc1nc(COC(=O)c2n[nH]c3ccccc23)cs1	-0.25	.
CCCC(=O)Nc1[nH]c(=S)c(C#N)c(-c2ccc(OC(=O)CCC)cc2)c1C#N	.	0.13
O=C(CSc1nc2ccccc2[nH]1)Nc1ccccc1C(F)(F)F	.	-0.36
O=c1[nH]c2ccccc2cc1CNc1ccc(Cl)cc1	1.8	0.35
Cc1oc2c(C)c3oc(=O)c4c(c3cc2c1C)CCCC4	-0.15	2.2
COc1ccc(-c2nc(Cn3c(SCc4ccccc4C)nc4ccncc43)c(C)o2)cc1OC	-0.85	-0.48
Cc1c(C(=O)N2CCN(C(=O)C3COc4ccccc4O3)CC2)sc2nc[nH]c(=O)c12 (stereo unspecified)	0.25	.
COc1ccc(Br)c(C(=O)Nn2c(-c3cc(OC)c(OC)c(OC)c3)nc3ccccc3c2=O)c1	.	-0.21
Cc1cc(C)n(CNc2ccc(I)cc2)n1	-0.55	0.29
CC1(C)CC(=O)c2cc(C#N)c(SCC(N)=O)nc2C1	-0.9	-0.65
CC(C)(C)C(=O)Nc1ccc2oc(=O)ccc2c1	-0.3	.
CCc1ccc(-c2ccc(C(=O)N3CC=C(n4c(=O)[nH]c5ccccc54)CC3)cc2)cc1	.	0.2
O=C1NN=C(Cc2ccccc2)C1CCO (stereo unspecified)	-2.8	.

Whole records as entered above. Order of values: AID504770 | Ba CapD inh
CCc1ccc(-c2ccc(C(=O)N3CC=C(n4c(=O)[nH]c5ccccc54)CC3)cc2)cc1 across the screens: . | 0.2
O=c1[nH]c2ccccc2cc1CNc1ccc(Cl)cc1 across the screens: 1.8 | 0.35
COc1ccc(Br)c(C(=O)Nn2c(-c3cc(OC)c(OC)c(OC)c3)nc3ccccc3c2=O)c1 across the screens: . | -0.21

Next records:
SMILES	AID504770	Ba CapD inh
CNc1ccccc1C(C)(C)c1cc(-c2cc(OC)cc(OC)c2)n[nH]1	1.5	-0.05
CCN(CC)c1ccc(NC(=O)C(C)C)cc1	-0.45	0.12
Oc1c(C(c2cccs2)N2CCCCC2)ccc2cccnc12 (stereo unspecified)	0.1	.
N#Cc1cc(-c2ccc(Cl)cc2)cnc1Sc1ccc(Cl)cc1	.	0.2
CCOC(=O)c1c(C(C)(C)C)oc2ccc(OCc3ccc(C(=O)OC)cc3)cc12	-0.15	0.56
CC(=O)Oc1ccc2c(=O)c(-c3ccccn3)coc2c1	-0.6	.
N#Cc1ccsc1NC(=O)c1ccc(Br)s1	-0.7	-0.27
CN1C/C(=C/c2ccco2)C(=O)/C(=C/c2ccco2)C1	-0.4	-3.2
CCOC(=O)C1=C(C)N(C)C(C)=C(C(=O)OCC)C1c1ccccc1F	-0.35	0.97
CN(C)c1ccc(/C=N/S(=O)(=O)c2ccccc2)cc1	-1.1	-0.03
Cc1noc(C)c1CSc1nc2ccccc2[nH]1	-0.1	-0.05
C=N[C@@H](C(=O)N[C@@H]1C(=O)N2[C@@H]1SC(C)(C)[C@@H]2C(=O)O)c1ccccc1	.	-0.24
Cc1ccc(S(=O)(=O)NCCC(=O)NC2CCCCCC2)cc1C	-0.75	-0.7
O=C(C(Sc1ccccc1)c1ccccc1)N1CCN(c2ncccn2)CC1 (stereo unspecified)	-0.05	.
N#Cc1ccc(C2Nc3cccc4cccc(c34)N2)cc1	1.6	.
CC(C)(C)N1C(=O)c2ccccc2C1=O	1.2	0.025
O=C(/C=C/c1ccc(F)cc1Cl)NNC(=O)CC1Cc2ccccc2C1	.	8
CCOC(=O)c1cc(C)nc(N2CCCCC2)c1C#N	0.2	0.3
CCOC(=O)C1=C(C)NC2=C(C(=O)C(C(=O)OCC)C(c3ccc(OC)cc3)C2)C1c1ccc(OC)cc1OC (stereo unspecified)	.	8.3
C[C@@H]1C(=O)O[C@H]2CC34[C@H]5C[C@@H](C(C)(C)C)C36[C@@H](OC(=O)[C@@H]6O)OC4(C(=O)O5)[C@]21O (stereo partly specified)	.	-0.075
Cc1cc(-c2nc3n(n2)Cc2ccccc2-3)c(C)n1-c1ccccc1	1.9	.
O=C(Cc1ccc(Cl)c(Cl)c1)NCc1ccco1	-0.7	.
O=C(Nc1ccccc1)c1ccc(CSc2nnc(-c3ccc4c(c3)OCO4)o2)cc1	0.05	.
CSCc1nnc(NC(=O)c2ccc(S(=O)(=O)N3CCCC3)cc2)o1	0.3	.
O=C(COC(=O)c1ccccc1Cl)c1ccc(Cl)cc1	-0.45	-0.065
c1ccc2c(c1)nc1n2CCCS1	-0.8	.
CC1=C(C(=O)OC(C)C)C(c2cn(-c3ccccc3)nc2-c2cccs2)NC(=O)N1 (stereo unspecified)	.	0.29
COC(=O)c1ccccc1N=Cc1c(C)[nH][nH]c1=O	-0.55	.
O=C(CSc1nnc(Cc2ccccc2)o1)N1CCOCC1	1.5	18
O=c1[nH]c(C(F)(F)F)nc2ccccc12	0.2	5.9
O=C(O)Cc1ccc(Br)cc1	1.2	.
CCN1C(=O)/C(=C/c2c(C)c(C#N)c(=O)n(C)c2N2CCN(c3ccc(F)cc3)CC2)SC1=S	-0.5	.
COc1ccc(Cn2nnnc2CN(Cc2ccc(C)cc2)Cc2cc3cc4c(cc3[nH]c2=O)OCO4)cc1	-0.1	.
C=CCN(c1ccccc1C(=O)O)S(=O)(=O)c1ccc(NC(=O)OC)cc1	-0.75	-0.085
O=C1CC2c3ccccc3C1C1C(=O)N(c3cccc(C(F)(F)F)c3)C(=O)C21 (stereo unspecified)	.	5.8
CCN(Cc1ccncc1)S(=O)(=O)c1ccc(Br)cc1	.	0.78
CSc1nnc2c(n1)OC(/C=C/c1ccccc1[N+](=O)[O-])Nc1ccccc1-2 (stereo unspecified)	.	-0.71
O=C(OC1CCCCC1)c1ccc(-c2ccc(-c3ccc(C(=O)OC4CCCCC4)cc3)cc2)cc1	.	-0.1
O=S(=O)(NC1Cc2ccccc2C1)c1cccc(Cl)c1	.	-0.56
N#Cc1c(C(F)(F)F)cc(-c2ccccc2)nc1SCC1COc2ccccc2O1 (stereo unspecified)	0.4	-0.095

Filtered by structure: those above with a Cl atom (11)
SMILES	AID504770	Ba CapD inh
CCN(Cc1cccc(Cl)c1)C(=O)c1cnc(OC)cc1C(F)(F)F	-0.15	0.8
COc1ccc(Nc2nc(NCCN3CCOCC3)nc3c2cnn3C)cc1Cl	0	-0.055
Cc1nc(Cl)c2sc(=S)n(-c3ccccc3)c2n1	-0.4	-2
COc1cccc(N/C(SCc2ccc(Cl)cc2)=C(/C#N)C(N)=O)c1	.	-0.09
COC(=O)c1ccc2c(c1)nc(SCc1ccccc1Cl)n1c3ccccc3nc21	-0.15	-0.095
O=c1[nH]c2ccccc2cc1CNc1ccc(Cl)cc1	1.8	0.35
N#Cc1cc(-c2ccc(Cl)cc2)cnc1Sc1ccc(Cl)cc1	.	0.2
O=C(/C=C/c1ccc(F)cc1Cl)NNC(=O)CC1Cc2ccccc2C1	.	8
O=C(Cc1ccc(Cl)c(Cl)c1)NCc1ccco1	-0.7	.
O=C(COC(=O)c1ccccc1Cl)c1ccc(Cl)cc1	-0.45	-0.065
O=S(=O)(NC1Cc2ccccc2C1)c1cccc(Cl)c1	.	-0.56

(cont.)
SMILES	AID504770	Ba CapD inh
CC(C)n1c(C(O)c2ccccc2)nc2ccccc21 (stereo unspecified)	0.6	1.3
O=C(Cn1c(=O)[nH]c2ccsc2c1=O)NC1CCCCCC1	0.95	0.38
Cc1cccn2c(=O)c(/C=C3\SC(=S)N(Cc4ccco4)C3=O)c(NCc3ccccc3)nc12	.	0.27
O=C(NCCC1=CCCCC1)Nc1cccc(F)c1	-0.3	1.1
CCOC(C)=C(C#N)C#N	-0.65	.

Compound activity from PubChem BioAssay.
